VDR inh = vitamin D3 receptor (human) inhibition; P11473; VDR-SRC2-3 peptide fluorescence polarization, 2 h; Potency, µM, without a hit: max response, negative = inhibition, most hits filed as inhibitors; actives 0.93% (n = 400,000); active = well fitted inhibition curve with a large enough effect; inconclusive = small, poorly fitted or top-dose-only effect, or another doubt; inactive = no such curve, though single readings can be large or run the other way; note: series mostly up to about 120 µM
Target sequence (P11473 whole entry, looked up): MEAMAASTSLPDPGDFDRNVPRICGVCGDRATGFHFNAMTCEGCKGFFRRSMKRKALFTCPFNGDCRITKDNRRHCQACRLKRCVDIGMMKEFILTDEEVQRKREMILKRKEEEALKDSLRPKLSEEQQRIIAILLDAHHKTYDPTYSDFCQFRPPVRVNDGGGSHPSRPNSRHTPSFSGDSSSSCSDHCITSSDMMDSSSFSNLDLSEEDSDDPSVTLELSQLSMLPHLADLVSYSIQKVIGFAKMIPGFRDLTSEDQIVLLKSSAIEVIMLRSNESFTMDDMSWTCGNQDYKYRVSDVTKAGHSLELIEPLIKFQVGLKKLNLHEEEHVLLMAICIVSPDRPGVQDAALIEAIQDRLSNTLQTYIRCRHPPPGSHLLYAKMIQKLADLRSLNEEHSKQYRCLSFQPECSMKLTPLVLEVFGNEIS
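Signal is fluorescence polarization, reporting how far test compounds block the interaction of VDR with the SRC2-3 coregulator peptide after a 2 h room-temperature incubation.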
Active calls of the source: *; ? = inconclusive; & = joins results of further samples. % is set by controls: 0 for no effect and ±100 for the full control effect; potency is the fitted concentration of half-maximal effect. These rows are one share of the data, so the mix of outcomes need not match the whole.

molecule	VDR inh
OC12CCCCC1C(c1ccc3c(c1)OCO3)N(Cc1ccccc1F)CC2 (stereo not given)	3.9%
Cc1cc(NS(=O)(=O)c2ccc(NC(=O)CCCOc3cccc(C)c3C)cc2)no1	-16.1%
O=C(O)CN1CCN(Cc2ccc(Cl)cc2)C1=O	-10.8%
Cc1nc(NC(=O)COC(=O)CCc2ccccc2)c(Cl)cc1Cl	7.4%
CC(C)Cn1c2nc3ccccc3nc2c2c(=O)n(CCN3CCOCC3)cnc21	0.7%
Cc1c(NS(=O)(=O)N2CCCCC2)c(=O)n(-c2ccccc2)n1C	28.1%
O=C(NC(=S)Nc1ccccc1N1CCCC1)c1ccccc1[N+](=O)[O-]	-5.8%
CCCCC(=O)Nc1ccc(C(=O)NN2C(=O)c3ccccc3C2=O)cc1	24.8%
CC(C)CCn1c(SCC(=O)NC2CCS(=O)(=O)C2)nc2cc(Cl)ccc2c1=O (stereo not given)	19.0%
CCC(=O)N1CCc2cc(S(=O)(=O)N3CCCC3)ccc21	2.1%
CC(C)N1CN(c2ccccc2)C(=S)N(c2ccccc2)C1	3.7%
Cc1ccc(NC(=O)CSc2nc3ccccc3nc2N2CCOCC2)cc1	-11.1%&-20.1%
Cc1ccc(-c2n[nH]c3c2CCC3)cc1	-7.0%
COc1cc(NC(=O)CN2C(=O)C(c3ccc(Cl)cc3)=NC23CCCCC3)cc(OC)c1	-9.1%
CCOC(=O)C1=CN(Cc2cccc(-c3ccc(Cl)nc3)c2)S(=O)(=O)N(C)C1C (stereo not given)	-25.0%
Cc1noc(C)c1NC(=O)N(C)C[C@H]1Oc2c(NC(=O)Nc3ccc(C(F)(F)F)cc3)cccc2C(=O)N([C@H](C)CO)C[C@@H]1C	-4.7%
O=C(Nc1c(Cl)cccc1Cl)c1cccc2c1C(=O)N(C1CCCCC1)C2	-17.1%
CCCNC(=O)C1=C(C)C(=O)OC12CCC(C)CC2 (stereo not given)	10.1%
COc1ccc(CCNC(=O)c2ccc3nc(N4CCCCC4)sc3c2)cc1OC	-3.7%
CC1CCCC(C)N1CCCNC(=O)CCn1c(=O)c2cccn2c2cccnc21 (stereo not given)	8.6%
COC(=O)c1ccc(NC(=O)c2c(NCc3ccc(OC)c(OC)c3)sc3c2CCCC3)cc1	-0.6%
CN(C(=O)CN1CCN(c2cnn(-c3ccccc3)c(=O)c2Cl)CC1)C1CCS(=O)(=O)C1 (stereo not given)	-14.8%
NC(=O)CSc1ncc(-c2ccccc2)[nH]1	0.3%
CCCCN(CCCC)S(=O)(=O)c1c(C)[nH]c(=O)[nH]c1=O	20.8%
O=C1CCc2cc(S(=O)(=O)NC(C(=O)N3CCN(c4ccccn4)CC3)c3ccccc3)ccc2N1 (stereo not given)	-9.1%
O=C(c1ccc(Cl)cc1)N1CCN(c2ccc([N+](=O)[O-])c(NCc3cccnc3)c2)CC1	-2.3%
Cn1c(SCc2ccc(F)cc2)nc2ccc(C(=O)NCc3ccccc3)cc21	-8.5%
COc1ccccc1CNc1nc(-c2ccccc2CN(C)C)nc2ccccc12	-12.6%
CN(C)NC(=S)Nc1ccc2nc(-c3ccccn3)c(-c3ccccn3)nc2c1	5.4%
CCOC(=O)c1c(CN2CCOCC2)n(-c2ccccc2)c2cc(Br)c(O)c(CN(C)C)c12	-0.8%
COc1ccccc1NC(=O)C(=O)c1cn(CC(=O)N2CCOCC2)c2ccccc12	5.9%
NC(=S)N/N=C/c1ccc(/C=N/NC(N)=S)cc1	0.9%
Cc1noc(C)c1NC(=O)N(C)C[C@H]1Oc2ccc(NC(=O)NC(C)C)cc2C(=O)N([C@H](C)CO)C[C@H]1C	10.6%
COC(=O)CCCC(=O)OC	-21.9%
Cc1cccc(CSc2nnc(CCCCCN)o2)c1	18.6%
CCCNC(=O)c1[nH]c(C)c(C(C)=O)c1C	-22.3%
Cc1nc(SCc2ccc(O)c([N+](=O)[O-])c2)n[nH]1	-12.7%
Cc1ccc(NC(=O)c2ccn(C)n2)c(Br)c1	1.2%
O=C(N/N=C/c1ccccc1)C1CCCN1C(=O)c1cc([N+](=O)[O-])cc([N+](=O)[O-])c1 (stereo not given)	7.7%
CCOC(=O)C[C@H]1c2ccc(C(F)(F)F)cc2S(=O)(=O)N1c1cccc(OC)c1	-2.6%
CC(=O)Oc1cc(C(F)(F)F)ccc1C(=O)O	-2.1%
CCOc1ccc(C(=O)Nc2cc(-c3ccccc3)no2)cc1	9.9%
COC(=O)CCSc1cc(NCCOC(C)=O)c([N+](=O)[O-])c2nonc12	-22.0%&-5.5%
CC(=O)Nc1ccc(-c2nc(C)c(C(C)=O)n2O)cc1	5.6%
COc1ccc(S(=O)(=O)N2CCCc3ccccc32)cc1[N+](=O)[O-]	4.5%
COc1ccccc1NC(=O)COc1ccc(Br)cc1CNC1CCCC1	-4.1%
O=C(c1ccncc1)N1CCC2(CC1)CCN(c1ccccc1)CC2	10.5%
CC(C)=CCC(C)(C)C1OCCN1C(=O)c1ccccc1 (stereo not given)	-3.6%
COc1ccc(NC(=O)c2oc3ccccc3c2NC(=O)c2ccc(OC)c(OC)c2)c(OC)c1	0.0%
COc1cccc(CN2CC(C(=O)NCc3cccc(N4CCCC4)c3)CCC2=O)c1 (stereo not given)	0.1%
CCC(CC)NC(=O)CO/N=C/c1ccccc1OC(F)F	-14.8%
COc1ccc2cc(C)c3nnc(SCC(=O)Nc4cc(OC)c(OC)cc4C(=O)O)n3c2c1	8.8%
O=C(Nc1ccc(F)cc1)[C@H](Cc1ccccc1)N1Cc2ccccc2C1=O	1.3%
CC1OC(OCC2OC(Oc3c(-c4ccc(O)c(O)c4)oc4cc(O)cc(O)c4c3=O)C(O)C(O)C2O)[C@@H](O)C(O)C1O (stereo not given in full)	-0.1%
Cc1sc2ncn(CC(=O)Nc3c(F)cccc3F)c(=O)c2c1S(=O)(=O)N1CCC(C)CC1	15.4%
Cc1cccc(-c2noc(-c3ccc(NCc4ccco4)c([N+](=O)[O-])c3)n2)c1	18.1%
CCCc1cnc(N2CCN(C(=O)c3c(-c4ccccc4)noc3C)CC2)nc1	-1.4%
COC(=O)c1ccccc1NC(=O)CSCC(=O)Nc1ccccc1OC	-0.2%
O=C(N/N=C/c1ccc(O)cc1)c1ccc(COc2cc(Cl)ccc2Cl)o1	5.3%
CCC1CC(CSC(=N)N)OC1=O (stereo not given)	-7.4%

Later entries.
molecule	VDR inh
CCOC(=O)Cc1csc(NC(=O)CCN2C(=O)c3cccc([N+](=O)[O-])c3C2=O)n1	-6.9%
O=c1[nH]c2ccc(S(=O)(=O)N3CCC(Cc4ccccc4)CC3)cc2o1	-4.0%
O=C(Nc1ccn(Cc2c(F)c(F)cc(F)c2F)n1)c1ccc(COc2ccccc2Cl)cc1	-6.6%
c1ccc(-c2nn3c(Cn4nnc5ccccc54)nnc3s2)nc1	-14.9%
CCc1nc2scc(-c3ccc(C)cc3)c2c(=O)n1N	-10.2%
CCc1ccc2oc(C(=O)Nc3nonc3C)c(C)c2c1	-17.0%
COc1ccc(OCCN(C)CC(=O)Nc2c(C)cccc2C)cc1	-5.8%
CN(C)S(=O)(=O)N1CCN(S(=O)(=O)c2ccc(F)cc2)CC1	-6.2%
COc1ccc(C2CC(c3cccs3)=NN2c2nc(-c3ccccc3)cs2)cc1OC (stereo not given)	-79.2%
Cc1ccc(NC(=S)Nc2ccc(F)cc2)cc1C	-4.3%
N#Cc1cc2cc3c(cc2nc1SCC(=O)OC1CCCCC1)OCO3	6.9%
C[C@H](CO)N1C[C@H](C)[C@@H](CN(C)Cc2ccc(C(=O)O)cc2)Oc2ccc(NC(=O)Cn3cnnn3)cc2C1=O	-2.2%
CC(=O)NNc1nc(-c2ccccc2)c2cc(Br)ccc2n1	12.4%
CCOC(=O)N/N=C\c1ccc(-c2cccc(C(F)(F)F)c2)o1	?
CCOCCCNC(=O)NC(C)c1c(-n2cccc2)sc2c1CCN(CC)C2 (stereo not given)	14.9%
CC(C)CCNC(=O)CN(Cc1ccccc1)C(=O)CCC(=O)Nc1ccccn1	4.1%
COCCCNC(=O)c1sc2ncccc2c1-n1cccc1	8.4%
CC(OC(=O)CCN=C1NS(=O)(=O)c2ccccc21)C(=O)N(C)c1ccccc1 (stereo not given)	-5.7%
CN(C(=O)COc1cc(C(F)(F)F)nn1C)c1ccccc1	4.5%
CS(=O)(=O)N1N=C(c2ccc3nccnc3c2)CC1c1ccccc1 (stereo not given)	6.3%

Entries from the list above containing a COOH group (4):
molecule	VDR inh
O=C(O)CN1CCN(Cc2ccc(Cl)cc2)C1=O	-10.8%
CC(=O)Oc1cc(C(F)(F)F)ccc1C(=O)O	-2.1%
COc1ccc2cc(C)c3nnc(SCC(=O)Nc4cc(OC)c(OC)cc4C(=O)O)n3c2c1	8.8%
C[C@H](CO)N1C[C@H](C)[C@@H](CN(C)Cc2ccc(C(=O)O)cc2)Oc2ccc(NC(=O)Cn3cnnn3)cc2C1=O	-2.2%

Next part.
molecule	VDR inh
O=C(CSc1nnnn1-c1ccccc1)N1CCc2ccccc21	-5.6%
CC(OC(=O)c1cccc(S(=O)(=O)N(C)C)c1)C(=O)NCC(=O)Nc1ccc(F)c(F)c1F (stereo not given)	-0.4%
CN(CC(=O)Nc1c(Cl)cccc1Cl)C(=O)Cc1cccs1	-4.1%
CSc1nc(N)nc2c1ncn2CC(=O)NCCNc1ccc([N+](=O)[O-])cn1	-12.6%
COc1cccc(N2C(=O)CC(N3CCN(S(=O)(=O)c4ccccc4[N+](=O)[O-])CC3)C2=O)c1 (stereo not given)	-4.1%
COc1ccc([C@@H]2[C@@H]3C(=O)N(C(C)(C)C)C(=O)[C@@H]3[C@]3(Cc4ccccc4)C(=O)N(c4ccc(C(F)(F)F)cc4)C(=O)N23)cc1	-24.5%
O=C(CN1CCN(c2ccccc2F)CC1)c1c[nH]c2ccc(F)cc12	-9.6%
COC(=O)c1cc(-c2ccc(C)cc2)n[nH]1	-11.3%
O=C(CSc1nnc(-c2ccco2)o1)c1ccc(F)c(F)c1	-5.6%
C=C(Br)Cn1cnc2ccccc21	-11.5%
O=C(O)C1C2CCC(O2)C1C(=O)NCCC1=CCCCC1 (stereo not given)	-20.6%
Cc1ccc(S(=O)(=O)N(C)C)cc1NC(=O)CSc1nc2ccccc2c(=O)n1CC1CCCO1 (stereo not given)	-16.5%
Cc1ccsc1C(=O)c1sccc1C	2.5%
O=C(NCc1ccncc1)c1ccc(N2CCCC2)c([N+](=O)[O-])c1	8.7%
O=C(OCC(=O)N1CCN(c2ccccc2)CC1)c1ncc(Cl)c(Cl)c1Cl	-9.0%
CC1CCN(C(=O)COC(=O)CCC(=O)c2cccs2)CC1	-12.6%
CCOC(=O)c1ccc(N(CC(=O)NCC2CCCO2)C(=O)CCC(=O)Nc2cc(C)on2)cc1 (stereo not given)	-0.3%
O=C(Nc1cccc(S(=O)(=O)Nc2ccccc2Cl)c1)c1ccc(Cl)nc1	-11.8%
O=c1c2ccccc2nc2n1C1(CCCCC1)Cc1ccccc1-2	-10.9%
Nc1cc(N)nc(SCc2ccc(Cl)cc2)n1	17.5%

3 compounds out of the list, ordered by heavy-atom count, ascending.
molecule	VDR inh
COC(=O)c1cc(-c2ccc(C)cc2)n[nH]1	-11.3%
O=C(CSc1nnnn1-c1ccccc1)N1CCc2ccccc21	-5.6%
COc1ccc([C@@H]2[C@@H]3C(=O)N(C(C)(C)C)C(=O)[C@@H]3[C@]3(Cc4ccccc4)C(=O)N(c4ccc(C(F)(F)F)cc4)C(=O)N23)cc1	-24.5%

Continuation.
molecule	VDR inh
CCCC(CCC)C(=O)Nc1c[nH]c(=O)[nH]c1=O	-1.8%
O=C(O)c1ccc(Cl)c(S(=O)(=O)N(Cc2ccccc2)c2ccc(Cl)cc2)c1	-10.8%
O=c1c2nncn2ccn1-c1ccc(F)c(F)c1	-8.9%
COc1ccc(C)c2sc(N(Cc3cccnc3)C(C)=O)nc12	-3.5%
CN(C)S(=O)(=O)c1cccc(NC(=O)c2cc3c(cc2Cl)N2CCCCCC2=NS3(=O)=O)c1	-0.8%
O=C(Nc1nccs1)c1ccc([N+](=O)[O-])cc1Cl	-25.1%
O=C1c2ccc([N+](=O)[O-])cc2C(=O)N1CNc1ccccn1	9.6%
Cn1c(=O)c2cc(S(=O)(=O)NCCC(=O)Nc3ccc(F)cc3F)ccc2n(C)c1=O	-29.8%
O=C(COc1ccc(F)c(Cl)c1)c1ccc[nH]1	-3.1%
COc1ccc(CNC(=O)c2ccc(CN3C(=O)C(C)=C(c4ccc(C)cc4)S3(=O)=O)cc2)cc1	14.5%
COc1ccc(C(=O)N2CCC3(CCN(Cc4nccs4)CC3)CC2)cc1	1.6%
CCOC(=O)CN(C(=O)CSc1nnc(COc2ccc(OC)cc2)n1CC)c1ccccc1	7.0%
COc1ccc(C2CCCN2C(=S)Nc2cccc(Cl)c2)cc1OC (stereo not given)	-9.7%
O=C(Nc1ccc(NC(=O)C2CCCCC2)nc1)c1cccs1	4.1%
N#Cc1ccccc1OCC(=O)NNC(=O)CCNC(=O)c1ccccc1	-14.3%
CC(Sc1nc2ccccc2c(=O)n1CCCN1CCOCC1)C(=O)N1CCc2ccccc21 (stereo not given)	5.3%
c1cncc(CNCc2ccco2)c1	15.0%
CCOC(=O)c1cc(-c2ccccc2)n(CCC(=O)Nc2ccc(C)cc2Cl)c1C	10.2%
COC(=O)CCCC1=CC2=CC(=O)C(C)(OC(=O)c3cccs3)C(=O)C2=CN1c1ccccc1 (stereo not given)	-3.0%
O=C(NCc1ccccn1)c1ccc(Cl)c(S(=O)(=O)N2CCOCC2)c1	1.5%
CC(=O)c1cccc(NC(=O)CN2C(=O)c3cccnc3Oc3ccc(Cl)cc32)c1	-15.4%
CCOCc1cc(CN2CCN(c3cccc(C(F)(F)F)c3)CC2)c(O)c2ncccc12	1.7%
Cc1nc2cc(NC(=O)Nc3ccccc3Cl)ccc2n1C	-5.9%
